High-throughput results as filed in PubChem.
HCMV UL50-53 inh – inhibitors of HCMV UL50-UL53 interaction, biochemical, HTRF; 190,000 compounds, 0.15% hits; normalized percent inhibition; inhibition, % (test concentration not listed);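 active = both replicates at 50% or more, plus weaker picks with an unusually low signal ratio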;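 also: stock transfer was 100 nL into about 20 µL; 0% = negative control wells and 100% = wells with untagged competitor protein; inactives centre near -12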
GIV-Gai inh – inhibitors of GIV peptide binding to Galpha-i3, primary screen, biochemical, fluorescence polarization, FITC-GIV GBA peptide, rat Galphai3; Guanine nucleotide-binding protein G(i) subunit alpha-3 (Rattus norvegicus), P08753; 90 min; active compounds read low; scaled: aluminum fluoride 0%, vehicle 100%; percent of control (FP), % (test concentration not listed); 210,000 compounds, 0.42% hits;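 active = replicate mean at 85% of control or lower, very high polarization wells dropped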;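 also: lower values mean more displacement of the GIV peptide from Galpha-i3; wells of about 15 µL received 100 nL stock; the first replicate is given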
Target sequence (P08753 whole entry, looked up): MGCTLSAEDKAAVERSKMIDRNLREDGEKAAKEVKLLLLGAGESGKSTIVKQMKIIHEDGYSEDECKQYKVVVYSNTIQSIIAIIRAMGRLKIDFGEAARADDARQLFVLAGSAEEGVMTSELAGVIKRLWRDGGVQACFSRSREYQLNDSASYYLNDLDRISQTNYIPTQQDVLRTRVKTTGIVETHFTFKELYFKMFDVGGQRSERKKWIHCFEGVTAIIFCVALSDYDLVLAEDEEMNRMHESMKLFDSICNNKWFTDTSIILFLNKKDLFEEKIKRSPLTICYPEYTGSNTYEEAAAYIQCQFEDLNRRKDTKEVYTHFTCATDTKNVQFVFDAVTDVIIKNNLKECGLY
Sa growth inh – S. aureus growth inhibition at 42 and 30 °C, primary screen, LtaS inhibitor project, RN4220, two temperatures | OD600, 20 h, 42 °C; active compounds read low | relative growth, % (concentration not given with the values) | 170,000 compounds, 0.53% hits;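 active = growth at 42 °C up to 50% and 20 or more points under that at 30 °C, or under 10% at both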;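 also: 300 nL library stock went into each well; scaled to the means of positive and negative controls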
Sa growth inh second temp – recorded beside Sa growth inh, whose call it bears; relative growth, %; measured here: growth at 30 °C;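 optical density after 20 h as mean of two plates; 100% = untreated growth and lower means inhibition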
Active calls of the source: *; x = no result given; & = joins results of further samples.

SMILES | HCMV UL50-53 inh | GIV-Gai inh | Sa growth inh | Sa growth inh second temp
Cc1ccc(N2CC3=C(C2=O)C(c2ccc(Br)cc2)NC(=O)N3C)cc1 (stereo unspecified) | -14 | 104 | 100 | 92
Cc1nn(C)c(C)c1S(=O)(=O)N(CC(=O)NCCc1ccccc1)c1ccc(C(C)C)cc1 | -12 | 103 | 99 | 92
O=C(OCC(=O)N1CCCCCC1)c1ccc(Cl)nc1 | -32 | x | 104 | 80
Cc1ccc(NC(=O)CSc2nc3c(oc4ccccc43)c(=O)n2-c2ccc(F)cc2)c(C)c1 | -28 | 104 | 124 | 95
Cc1cc(N2CCC(C)CC2)nc2ccc(NC(=O)CCC(=O)N3CCCCC3C)cc12 (stereo unspecified) | -32 | 103 | x | x
CC(=O)OCN1C(=O)N(COC(C)=O)C2C1N(COC(C)=O)C(=O)N2COC(C)=O (stereo unspecified) | -34 | 101 | 83 | 80
Cc1cc(Br)ccc1SCC(=O)OCC(=O)NC1CCCC1 | -27 | x | 94 | 86
COc1ccc(-c2cc(C(F)(F)F)nc(SCCC(=O)N3CCC(C(N)=O)CC3)n2)cc1 | -38 | 102 | 93 | 79
Cc1n[nH]c(=S)n1CC(=O)N1c2ccccc2CCc2ccccc21 | -4 | 101 | 98 | 84
Cc1cccc2nc(CSc3nnc(-c4ccccc4)o3)cn12 | -18 | 98 | 98 | 79
CC(C)OCCCNC(=O)CN1C(=O)CSc2ccc(S(=O)(=O)N3CCCCC3)cc21 | x | 99 | 114 | 83
Cc1n[nH]c(C)c1-c1c(C)n[nH]c1C | -10 | 101 | 97 | 87
Cc1cc(C(=O)NCC2COc3ccccc3O2)nn1C (stereo unspecified) | -44 | 98 | 91 | 84
COc1ccc(-c2nc(SCC(=O)N3CCCc4ccccc43)c3c(=O)n(C)c(=O)n(C)c3n2)cc1 | 5 | 105 | 78 | 99
COc1ccc(-c2nc3ccccc3s2)cc1 | -30 | 101 | 95 | 75
Cc1nc2ccc(CO)cc2s1 | 20 | x | 99 | 101
CCCn1c(SCc2nc(-c3ccccc3C)no2)nnc1-c1ccc(Cl)cc1 | -18 | 102 | 101 | 92
CC(C)NC(=O)c1cccn2c(=O)c3c4c(sc3nc12)CCCC4 | x | 105 | 95 | 86
CCC1Oc2ccccc2N(CC(=O)NCc2ccc(C)cc2)C1=O (stereo unspecified) | x | 101 | 111 | 71
CSC(=NC=[N+](C)C)Nc1ccccc1 | -6 | 104 | x | x
COc1cccc(NC(=O)Cn2c(=O)n(CCCCC(=O)NCCC(C)C)c(=O)c3ccccc32)c1 | -10 | 103 | x | x
Cc1c(-c2nc(-c3ccccc3F)no2)nnn1-c1cc(F)ccc1F | x | 107 | 95 | 91
N/C(=N\O)c1cccs1 | -18 | x | 94 | 88
Cc1cccc(-n2ncc3c2ncn2nc(COc4c(C)cccc4C)nc32)c1 | -17 | 108&95 | 89 | 93
Cc1nn(C(=O)c2ccc(Cl)cc2)c(C)c1S(=O)(=O)N1CCOCC1 | x | 110 | 94 | 98
(listing goes on)
SMILES | HCMV UL50-53 inh | GIV-Gai inh | Sa growth inh | Sa growth inh second temp
Cc1cc(C)n2ncc(C(=O)N3CCC(C)CC3)c2n1 | -30&-17 | 97&101 | 92 | 82
Clc1ccc2c(N3CCN(CCCN4CCN(c5ccnc6cc(Cl)ccc56)CC4)CC3)ccnc2c1 | 1 | 108 | x | x
CCc1ccc(C(=O)Nc2nncs2)cc1 | 1 | 101 | 98 | 104
COc1ccc(C(=O)NCCc2sc(-c3ccc(F)cc3)nc2C)cc1OC | 4 | 99&110 | 119 | 95
COc1cccc(N2CC(NC(=O)c3cc4ccccc4o3)CC2=O)c1 (stereo unspecified) | x | 92&104 | 86 | 91
CCOc1ccc(NC(=O)C(=O)NCCc2csc(-c3ccc(C)cc3)n2)cc1 | x | 97 | 111 | 82
Cc1nn(C(=O)c2cccc([N+](=O)[O-])c2C)c(C)c1S(=O)(=O)N1CCOCC1 | x | 100 | 96 | 92
CCOC(=O)c1cc(S(=O)(=O)N2CCCC2)cn1C | x | 102 | 87 | 82
CCN(CC)CCNc1c2c(c(C#N)c3nc4ccccc4n13)CCCC2 | x | 101 | 105 | 91
CC(C)CC(NS(=O)(=O)c1ccc2c(c1)oc(=O)n2C)C(=O)NCCc1ccc(Cl)cc1 (stereo unspecified) | -16 | 106 | 115 | 90
O=C(NCc1cccc(Cl)c1)c1c2c(nc3ccccc13)C(=O)N(C1CCCCC1)C2 | x | 103 | 107 | 98
CNC(=O)c1cc(C)c(-c2ccccc2)s1 | -22 | 111 | 111 | 110
CN1C(=O)C2(c3ccccc31)N(c1ccc(Br)cc1)C(=O)CS2(=O)=O (stereo unspecified) | x | 102 | 84 | 78
CCN(CC)CC(=O)Nc1ccc(Oc2ccc(NC(=O)CN(CC)CC)cc2)cc1 | -5 | 96 | 103 | 97
O=C(Cn1cc(C(=O)c2ccco2)c2ccccc21)NC1CCCC1 | -5 | 104 | 96 | 80
COC(=O)C1=C(C)NC(=O)C1(NS(=O)(=O)c1ccc(C)cc1)C(F)(F)F (stereo unspecified) | 4 | 108 | 72 | 86
CCc1nnc2n1NC(c1ccccc1)C(C(=O)Nc1ccc(F)cc1)S2 (stereo unspecified) | 1 | 102 | x | x
Cc1cc(C)c(S(=O)(=O)Nc2ccc3oc4c(c3c2)CCCC4)cc1C | -2 | 104 | 94 | 76
CN=c1scc(C)n1/N=C/c1ccc2c(c1)OCO2 | -29 | x | 80 | 91
NC(=O)c1noc(C(=O)N(c2ccc(OC(F)(F)F)cc2)C(C(=O)NC2CCCC2)c2c[nH]c3ccccc23)c1N (stereo unspecified) | 4 | 97 | 117 | 91
O=C(CCc1ccccc1)N1CCN(c2ccc(N3CCCCCC3)nn2)CC1 | -84 | 103 | 99 | 89
CCc1ccc(-c2cc(C(=O)N3CCN(C)CC3)c3ccccc3n2)cc1 | -30 | 104 | x | x
Cc1nn(-c2ccc(N3CCCC3)nn2)c(C)c1CCC(=O)NCc1ccc2c(c1)OCO2 | -65 | 100 | 105 | 83
COC(=O)c1c(F)c(F)c(NCCO)c(F)c1F | -6 | 103 | 91 | 86
Cc1cn2c(=O)cc(COC(=O)c3cccc(NC(=O)COc4ccccc4)c3)nc2s1 | x | 98 | 93 | 80

Grouped by structure, the entries above containing an aryl thioether with sulfur outside any ring
SMILES | HCMV UL50-53 inh | GIV-Gai inh | Sa growth inh | Sa growth inh second temp
Cc1ccc(NC(=O)CSc2nc3c(oc4ccccc43)c(=O)n2-c2ccc(F)cc2)c(C)c1 | -28 | 104 | 124 | 95
Cc1cc(Br)ccc1SCC(=O)OCC(=O)NC1CCCC1 | -27 | x | 94 | 86
COc1ccc(-c2cc(C(F)(F)F)nc(SCCC(=O)N3CCC(C(N)=O)CC3)n2)cc1 | -38 | 102 | 93 | 79
Cc1cccc2nc(CSc3nnc(-c4ccccc4)o3)cn12 | -18 | 98 | 98 | 79
COc1ccc(-c2nc(SCC(=O)N3CCCc4ccccc43)c3c(=O)n(C)c(=O)n(C)c3n2)cc1 | 5 | 105 | 78 | 99
CCCn1c(SCc2nc(-c3ccccc3C)no2)nnc1-c1ccc(Cl)cc1 | -18 | 102 | 101 | 92

Carrying on.
SMILES | HCMV UL50-53 inh | GIV-Gai inh | Sa growth inh | Sa growth inh second temp
O=C(NC1CCCCC1O)c1cccc(Cl)c1 (stereo unspecified) | -4 | x | 87 | 104
COc1cc(NC(=O)Cn2cnc3sc(C)c(S(=O)(=O)N4CCC(C)CC4)c3c2=O)cc(OC)c1OC | -33 | 96 | 94 | 85
O=C(OCCCN1C(=O)c2ccccc2C1=O)c1ccc(Cl)cc1Cl | x | 103 | 109 | 76
COc1cccc(NC(=O)c2oc3ccc(S(=O)(=O)N4CCCCCC4)cc3c2C)c1 | x | 100 | 115 | 93
CCCCS(=O)(=O)c1sc2nc(C)cc(C)c2c1N | -20 | 113 | 102 | 97
CC1CCC2(CC1)NC(=O)N(/N=C/c1ccccc1)C2=O (stereo unspecified) | -32 | x | 102 | 88
O=P(O)(CCc1ccccn1)CN1CCOCC1 | -2 | x | 105 | 94
CN(Cc1ccccc1)C(=O)COCc1cc(-c2ccco2)on1 | -31 | 110 | 95 | 76
CC(C)n1c(=O)c(=O)[nH]c2cc(-c3noc(-c4ccc(F)c(Cl)c4)n3)ccc21 | -2 | 103 | x | x
Cc1ccc(CNC(=S)NC2CCN(C)CC2)cc1 | -8 | 102 | 101 | 99
COc1cc(NC(=O)C2CCN(c3ncccn3)CC2)cc(OC)c1 | 1 | 102 | 101 | 97
CCc1ccc(NC(=O)c2sc3ncnc(N4CCN(C)CC4)c3c2C)cc1 | -44 | 99 | 114 | 71
CC(C)n1cnc(S(=O)(=O)N2CCCC(C(=O)Nc3ccccn3)C2)c1 (stereo unspecified) | -20 | 106 | x | x
Cc1ccc2nsnc2c1S(=O)(=O)NC(C)(C)C | -55 | 102 | 112 | 88
O=C(CSc1ccc(-c2cccnc2)nn1)c1ccc(F)cc1 | x | 113 | 115 | 86
O=C1/C(=C/c2ccc(-c3nn[nH]n3)cc2)C(c2ccccc2)Oc2ccccc21 (stereo unspecified) | -22 | 102 | 68 | 59
COC(=O)c1sc(-c2cccs2)cc1NC(=O)CSCC(=O)O | -88 | 103 | 110 | 91
Fc1ccc(CSc2nc3cccnc3n2Cc2ccccc2F)cc1 | -18 | 98 | x | x
O=c1cc(Cn2nnc(-c3ccc(Cl)cc3)n2)nc2sccn12 | -19 | x | 94 | 87
COc1ccccc1N1CCN(C(C)C(=O)N2CC(C)CC(C)C2)CC1 (stereo unspecified) | 9 | x | 99 | 93
O=S(=O)(c1ccc(-c2cc(C(F)(F)F)on2)s1)N1CCN(Cc2ccccc2)CC1 | -4 | 101 | 99 | 81
CC(=O)c1ccc(NC(=O)CCc2c(C)nn(-c3ccc4nncn4n3)c2C)cc1 | x | 105 | 84 | 94
CC1(C)CC(=O)c2sc(NC(=O)/C=C\c3ccco3)nc2C1 | -49 | 101 | x | x
O=C(N[C@@H](Cc1ccc(O)cc1)C(=O)O)OCc1ccccc1 | -21 | 108 | 92 | 87
CCC1(CC)CC(=O)C=NC1=O | -2 | 92 | 101 | 94

Of the compounds above, these contain a COOH group:
SMILES | HCMV UL50-53 inh | GIV-Gai inh | Sa growth inh | Sa growth inh second temp
COC(=O)c1sc(-c2cccs2)cc1NC(=O)CSCC(=O)O | -88 | 103 | 110 | 91
O=C(N[C@@H](Cc1ccc(O)cc1)C(=O)O)OCc1ccccc1 | -21 | 108 | 92 | 87

The results go on.
SMILES | HCMV UL50-53 inh | GIV-Gai inh | Sa growth inh | Sa growth inh second temp
CCOC(=O)c1c(C=O)oc2c(C)cc(OC(=O)c3cccc(Cl)c3)c(Br)c12 | -6 | 102 | x | x
CCOC(=O)C1C(=O)NC(N2CCN(CC)CC2)=NC1C(C)C (stereo unspecified) | -12 | 100 | 94 | 90
COc1ccccc1C(=O)NCCCc1nc2ccccc2[nH]1 | x | 100 | 110 | 92
NS(=O)(=O)c1ccc(NC(=O)Cc2csc(NC(=O)C3CC3)n2)cc1 | 4 | 106 | x | x
Cc1ccc(-c2c(C(F)(F)F)nn3c(-n4nc(C)cc4C)cc(C)nc23)cc1 | 0 | 93 | x | x
CC1(C)OC(=O)C(=Cc2cccn2-c2ccc(C(F)(F)F)cc2)C(=O)O1 | -36 | 104 | 102 | 90
Nc1nc(N)c2[nH]c(-c3ccccc3)nc2n1 | 15 | x | 103 | 94
COc1cc2c(C(=O)N3CCCCC3C)cn(C)c(=O)c2cc1OC (stereo unspecified) | x | 108 | 91 | 88
Cn1cnnc1SCC(=O)c1ccc2c(c1)NC(=O)CO2 | 4 | x | 101 | 87
CN(Cc1ccccc1)C(=O)CCc1ccccc1 | 2 | x | 110 | 96
COC(=O)CC1=C(C(=O)OC)C(c2cccnc2)C(C#N)=C(N)O1 (stereo unspecified) | -6 | x | 93 | 83
CCCc1nnc(SCC(=O)c2ccccc2)o1 | -5 | 102 | 102 | 86
O=C1NC2=C(C(=O)OC2)C(c2ccc(F)cc2)N1 (stereo unspecified) | -17 | 110 | 99 | 86
COC(=O)C1=CN(CCOC23CC4CC(CC(C4)C2)C3)C=C(C(=O)OC)C1c1cccc(F)c1 | -15 | x | 97 | 84
c1ccc(-n2ncnc2-c2ccc3c(c2)OCO3)cc1 | -19 | 101 | 87 | 75
CC1(C)CC(=O)C=C(Nc2ccc(N)cc2)C1 | -24 | x | 97 | 88
Clc1ccc2nc(N3CCCC3)nc(-c3ccccc3)c2c1 | -26 | 101 | 91 | 86
Cc1ccc2[nH]c3c(=O)n(CC(=O)NCCc4ccc(Cl)cc4)ncc3c2c1 | x | 105 | 83 | 98
O=C(CSc1nc2ncc(Cl)cc2[nH]1)c1ccc(S(=O)(=O)N2CCCC2)cc1 | -22 | x | 100 | 95
Cc1cc(-c2nn(C)c(=O)c3ccccc23)cc(C)c1OC(=O)Nc1ccc(Cl)cc1 | -22 | 103 | 76 | 79
